HSD17B inhib: HSD17B dehydrogenase inhibition. Q99714. recombinant HSD17B10, NADH fluorescence kinetic; many of its hits are not listed in these tables. Potency, µM (titrated, usually from 57.1 µM), inactives show at the highest dose activity change, negative = inhibition, actives largely listed as inhibitors. hit rate 7.6% among 75,000; active means well fitted inhibition curve with a large enough effect; inconclusive means small, poorly fitted or top-dose-only effect; inactive means no such curve, though single readings can be large or run the other way;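 further: the protocol describes HADH2 (HSD17B10) and not the HSD17B4 of the title; nearly all actives have a fitted effect of over 70% in size; most hits overshoot -100% by far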
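Activity followed as NADH fluorescence increase (ex 360, em 450 nm) every 30 seconds for 4 min, using final 90 uM beta-hydroxybutyryl CoA and 1 mM NAD+. Recombinant His-tagged enzyme, 20 nM, pH 9.0 Tris buffer, 15 min compound preincubation.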
* marks the source's active call; other numbers are inactive results; ? = inconclusive; [ ] = dose if it differs, or a comment. On the % scale 0 is the no-effect control and ±100 the full control effect; potency means the concentration at half of the fitted maximal effect. An excerpt; rates above refer to the full screens.

SMILES	HSD17B inhib
O=C(Nc1cccc(C(F)(F)F)c1)c1cc(-c2cccs2)on1	-9%
O=C(Nc1ccccc1C(F)(F)F)c1cccnc1	1%
C(=N\c1c(-c2ccccc2)nc2n1CCS2)/c1ccccc1	-11%
CCCN(CCC)S(=O)(=O)c1cc(Br)cc2c1N(C(=O)CC)CC2	-5%
CCOC(=O)C1CCCN(CC(=O)Nc2c(C(=O)OC)[nH]c3ccc(Br)cc23)C1 (stereo not drawn)	-25%
COc1cccc(C2CC(c3ccc(C)cc3)Nc3nc(N)nn32)c1 (stereo not drawn)	5%
CC(C)N(C)C	4%
Cc1nonc1NC(=O)c1ccc(Cl)c(S(=O)(=O)N2CCCCC2)c1	-5%
CC1Cc2ccccc2N1C(=O)COc1cccc(-n2cnnn2)c1 (stereo not drawn)	4%
O=C1C(c2ccc(F)cc2)N(C2CCCCC2)C(=O)CN1C1CCCC1 (stereo not drawn)	1%
CC(C)C[C@H](NC(=O)NCc1ccc(Cl)cc1)C(=O)O	5%
Cn1c(=O)cc(SCC(=O)NCC2CCCO2)c2ccc(Cl)cc21 (stereo not drawn)	1%
COC(=O)C1CCN(c2cc(=O)n(C3CCCCC3)c(=O)[nH]2)CC1	1%
COc1ccc(S(=O)(=O)Nc2ccc(S(=O)(=O)N3CCOCC3)cc2)cc1	14%
CC1=C(C)C(=O)N(c2ccccn2)C1=O	2%
COc1ccc(-n2c(=O)[nH]cc(C(=O)Nc3ccc4c(c3)OCCO4)c2=O)cc1	1%
Cc1cc(C)nc(NS(=O)(=O)c2ccc(NC(=O)CCN3C(=O)c4ccccc4C3=O)cc2)n1	-2%
CCN(CC)S(=O)(=O)c1ccc2oc(C(=O)NCC3COc4ccccc4O3)c(C)c2c1 (stereo not drawn)	?
CCOC(=O)c1c(NC(=O)CSc2nnnn2-c2ccc3c(c2)OCCO3)sc(C)c1C	12%
O=C(c1noc2c1CCc1ccccc1-2)N1CCc2ccccc2C1	7%

Quoted from above, six compounds:
SMILES	HSD17B inhib
CC1=C(C)C(=O)N(c2ccccn2)C1=O	2%
COc1ccc(-n2c(=O)[nH]cc(C(=O)Nc3ccc4c(c3)OCCO4)c2=O)cc1	1%
Cc1cc(C)nc(NS(=O)(=O)c2ccc(NC(=O)CCN3C(=O)c4ccccc4C3=O)cc2)n1	-2%
CCN(CC)S(=O)(=O)c1ccc2oc(C(=O)NCC3COc4ccccc4O3)c(C)c2c1 (stereo not drawn)	?
CCOC(=O)c1c(NC(=O)CSc2nnnn2-c2ccc3c(c2)OCCO3)sc(C)c1C	12%
O=C(c1noc2c1CCc1ccccc1-2)N1CCc2ccccc2C1	7%

(next part)
SMILES	HSD17B inhib
Cc1cc2c(cc1C)NC(c1ccccn1)C1=C(CC(C)(C)CC1=O)N2 (stereo not drawn)	-7%
O=C(Cn1c(=O)n2ncnc2c2c3c(sc21)CCCC3)c1ccccc1	14%
CCN(CC(=O)Nc1c(C(=O)OC)[nH]c2ccccc12)c1ccc2c(c1)OCO2	-7%
COc1ccc(-c2cc(C(=O)O)c(C)o2)cc1OC	?
CN1C(=O)c2ccccc2C(C(=O)NCC2CCCO2)C1c1c[nH]c2ccccc12 (stereo not drawn)	2%
COc1cc(C(=O)OCc2cc3ccccc3[nH]c2=O)cc(OC)c1OC	-3%
c1ccc(Cn2ncc3ccccc32)cc1	1%
CCc1cccc(Nc2cc(C)nc3nc(C)nn23)c1	5%
CN1C(=S)SC(/[N+]([O-])=C\c2ccco2)C1(C)C (stereo not drawn)	-11%
Cc1ccc(CCNC(=O)C2CCN(S(=O)(=O)c3ccc4c(c3)CCC(=O)N4)CC2)cc1	5%
N[C@@H](Cc1c[nH]c2ccc([N+](=O)[O-])cc12)C(=O)O	6%[11.4 µM]
Clc1ccccc1Nc1c2c(nc3ncnn13)CCC2	-19%
CCOc1ccc2[nH]c(=O)c(CN(Cc3cccs3)C(CC)c3nnnn3C(C)(C)CC)cc2c1 (stereo not drawn)	?
O=C1CCN(C(=O)c2ccccc2)C2CCCCC12 (stereo not drawn)	7%
COc1ccccc1N1CCN(C(=O)c2c(-c3ccccc3Cl)noc2C)CC1	-4%
CCOC(=O)c1cc(-c2nnc(-c3cc(OC)c(OC)c(OC)c3)o2)c(C)nc1C	32µM*
Cc1nnc(C)n1/N=C/c1cc(Br)ccc1O	-1%
CCn1c(SC)nc2c(c1=O)SC(C)C2 (stereo not drawn)	3%
COc1cccc2cc(C(=O)N(C)C)c(=O)oc12	-22%
CCOCCCNc1nc2ccccc2[nH]1	11%
O=C(Nc1cc(=O)[nH]c2ncnn12)c1ccccc1Cl	-2%
CCOc1cc(C2CC(=O)Nc3cc(C)c(C)cc32)ccc1O (stereo not drawn)	2%
COc1ccc2nc(NC(=O)Cc3ccc(OC)c(S(=O)(=O)N4CCOCC4)c3)sc2c1	-7%
O=c1c(-c2cc(F)cc(F)c2)nc2cncnc2n1Cc1ccccc1Cl	-6%
CCOC(=O)N1CCN(CC(O)COc2c(OC)cccc2OC)CC1 (stereo not drawn)	9%
COc1ccc(C)cc1S(=O)(=O)NC1CCCCC1C (stereo not drawn)	3%
Cc1cc2c(cc1C)NC(CC(=O)NCc1ccccc1)C(=O)N2 (stereo not drawn)	32µM*
COCCn1c(=O)c(-c2ccc(F)cc2)nc2cncnc21	-26%
CCC(C)(C)NC(=O)C(OC(=O)c1ccco1)c1ccccc1OC (stereo not drawn)	1%
O=C(O)COc1cccc(NC(=O)c2ccccc2)c1	0%
O=C(Nn1cnnc1)c1csc2ccccc12	-6%
CC(C)c1nnc(NC(=O)CN2C(=O)c3ccccc3C2=O)s1	5%
CCN1C(=O)C(CC(=O)N2CCN(C(c3ccccc3)c3ccccc3)CC2)N(CC)C1=O (stereo not drawn)	-3%
CCN(Cc1ccccc1)C(c1cc2cc(C)cc(C)c2[nH]c1=O)c1nnnn1CCOC (stereo not drawn)	126%[activator]
COc1cc(-c2nnc(COC(=O)C3c4ccccc4Oc4ccccc43)o2)cc(OC)c1OC	?
Cc1onc(-c2c(F)cccc2Cl)c1C(=O)Nc1cccc(Cn2cccn2)c1	-2%
O=C(c1cnccn1)N1CCC2(CC1)CN(c1ccncc1)C2	3%
CCOC(=O)C1CCN(Cc2ccc(F)cc2)CC1	8%
CC(=O)OC(C(=O)NC1CCCCC1)c1ccccc1 (stereo not drawn)	-4%
O=C1CCC(=O)N1CCC(c1ccc(F)cc1)c1ccco1 (stereo not drawn)	-3%
Cc1ccc(C(=O)C2=C(O)C(=O)N(CCCN3CCOCC3)C23C(=O)N(C)c2ccccc23)o1 (stereo not drawn)	3%
COCc1cc(C)nc(Nc2ccc(C)c(C)c2)c1C#N	-16%
Cc1ccc(NC(=O)c2cc(N(C)C)ccc2[P+](=O)O)cc1	?
COc1cc(NC(=O)C2CC(c3cccc(OC)c3OC)=NO2)cc(OC)c1OC (stereo not drawn)	-9%
CCCCN(CC)CCCNC(=O)c1cc2cc3ccc(OC)cc3nc2o1	25µM*
Cc1nn(-c2ccccc2)c2sc(C(=O)C(C#N)c3ccccn3)cc12 (stereo not drawn)	5%
COc1ccc2oc(C(=O)OCC(=O)c3ccc4c(c3)OCCO4)c(C)c2c1	1%
O=C1CCCC/C1=C/Nc1ccc2c(c1)OCO2	-9%
COc1ccc(Oc2ncc3nc(C)c(=O)n(CCc4ccccc4)c3n2)cc1	3%
O=C1CC(c2ccccc2)n2nc(N3C(=O)CCC3=O)nc2N1 (stereo not drawn)	-1%
CCOC(=O)c1nc(NCc2cccnc2)c2ccccc2n1	-11%
O=C(CSc1n[nH]c(=O)[nH]c1=O)c1ccccc1	4%
COc1ccc(C(=O)Nc2ccc(OC)c(OC)c2)cc1	0%
C/C(Cl)=C\Cn1c(N2CCCCCC2)nc2c1c(=O)n(C)c(=O)n2C	-1%
CCOc1cc(-c2c(C)c(CC)nc(N)c2C#N)ccc1O	-15%
CCCCn1c(SCC(=O)NCCc2ccc(OC)c(OC)c2)nc2c1c(=O)n(C)c(=O)n2C	2%
Cc1ccc(-c2cc(-c3ccc(Cl)cc3)c(C#N)c(N)n2)o1	0%
CCSc1nnc(NC(=O)CSc2nc(CC)nc3c2c(=O)n(C)c(=O)n3C)s1	2%
O=C(CN1CCCc2ccccc21)NC(=O)NCc1ccco1	-1%
Cc1ccc(-c2nn3c(C)nnc3c3ccccc23)cc1S(=O)(=O)N1CCN(CCO)CC1	?

The list continues:
SMILES	HSD17B inhib
Cc1ccc(N(CC(O)CN2CCCC2)S(=O)(=O)c2ccccc2)cc1 (stereo not drawn)	8%
COc1c(C)cccc1C(=O)Nc1ccc(N2CCN(S(C)(=O)=O)CC2)cc1	?
CCOc1ccccc1NC(=O)CSc1nnnn1Cc1ccccc1	1%
CCCOC(=O)Cc1c(O)c2ccccc2[nH]c1=O	32µM*
Cc1ccc(C)c(NC(=O)C2CC(=O)N(C(C)C)C2)c1 (stereo not drawn)	6%
Cc1cc(NC(=O)c2cn(C3CCCCC3)c(=O)c3c2c2ccccc2n3C)no1	?
CCOC(=O)CSc1nnc(Cc2cc(=O)[nH]c(=O)[nH]2)n1-c1cccc(OC)c1	13%
CCC(C)n1cnc2c(c1=O)c1nc3ccccc3nc1n2Cc1ccccc1OC (stereo not drawn)	-7%
Cc1ccc2c(c1)N(Cc1ccccn1)C(=O)C(C)O2 (stereo not drawn)	5%
O=C(NCCCN1CCCC1=O)c1cccc(C(F)(F)F)c1	13%
CN(CC(=O)N1CCc2ccccc21)S(=O)(=O)c1cccs1	0%
CN(C)C=Nc1ncc2c3ccccc3n(Cc3ccccc3)c2c1C#N	-5%
CCOC(=O)CN1CC23C=CC(O2)C(C(=O)NCc2ccc(C)cc2)C3C1=O (stereo not drawn)	2%
N#CC1=C(N)SC(N)=C(C#N)C1CCC1CCCCC1	32µM*
CC(Sc1nc2c(c(=O)n(C)c(=O)n2C)n1Cc1cc2c(cc1Cl)OCO2)C(=O)O (stereo not drawn)	4%
CCCNC(=O)OC[C@@H]1O[C@H](CCO/N=C(\C)CCC(=O)OC[C@@H]2O[C@H](c3ccccc3)C=C[C@@H]2Oc2ccc(OC)cc2)C=C[C@@H]1Oc1ccc(OC)cc1	2%[11.4 µM]
Cc1ccc(CNC(=O)c2cccc(-n3cnnn3)c2)cc1	1%
Cn1c2ccccc2c(=O)n2c(=O)c3ccccc3cc12	220%[activator]
CCCN1C(=O)c2cc(C(=O)NC3CCCCCC3)ccc2C1O (stereo not drawn)	12%
Cc1nc2c(-c3ccc(F)cc3)c(C)nn2c(C)c1CCC(=O)NC(C)CCc1ccco1 (stereo not drawn)	-8%

Molecules above that have fluorine, in the order listed:
SMILES	HSD17B inhib
O=C(Nc1cccc(C(F)(F)F)c1)c1cc(-c2cccs2)on1	-9%
O=C(Nc1ccccc1C(F)(F)F)c1cccnc1	1%
O=C1C(c2ccc(F)cc2)N(C2CCCCC2)C(=O)CN1C1CCCC1 (stereo not drawn)	1%
O=c1c(-c2cc(F)cc(F)c2)nc2cncnc2n1Cc1ccccc1Cl	-6%
COCCn1c(=O)c(-c2ccc(F)cc2)nc2cncnc21	-26%
Cc1onc(-c2c(F)cccc2Cl)c1C(=O)Nc1cccc(Cn2cccn2)c1	-2%
CCOC(=O)C1CCN(Cc2ccc(F)cc2)CC1	8%
O=C1CCC(=O)N1CCC(c1ccc(F)cc1)c1ccco1 (stereo not drawn)	-3%
O=C(NCCCN1CCCC1=O)c1cccc(C(F)(F)F)c1	13%
Cc1nc2c(-c3ccc(F)cc3)c(C)nn2c(C)c1CCC(=O)NC(C)CCc1ccco1 (stereo not drawn)	-8%

Individual results from the results shown:
`CCOC(=O)CN1CC23C=CC(O2)C(C(=O)NCc2ccc(C)cc2)C3C1=O` (stereo not drawn) in HSD17B inhib: 2%
`CCC(C)n1cnc2c(c1=O)c1nc3ccccc3nc1n2Cc1ccccc1OC` (stereo not drawn) in HSD17B inhib: -7%

Following part.
SMILES	HSD17B inhib
CCn1c(SCC(=O)NCc2cccs2)nnc1-c1cccs1	8%
COc1cc(C2C(C(C)=O)=C(C)Nc3ncnn32)ccc1O (stereo not drawn)	-4%
Cc1c(C(=O)NCCCN2CCOCC2)sc2nc(-c3ccc(F)cc3)cn12	-4%
COc1ccc(NC(=O)CSc2nnc(CNc3ccc(F)cc3)o2)c(OC)c1	-10%
CC1=Nn2c(nnc2-c2cc(-c3ccccc3)n[nH]2)SC1	0%
COc1cccc(CNc2ccc(N3CCCCC3)cc2)c1OC	17%
Cn1c(Cn2c(=O)sc3ccccc32)nnc1SCC(=O)NCc1ccco1	0%
COc1cc(C(=O)N2CCN(c3cc(Cl)ccc3Cl)CC2)cc(OC)c1OC	0%
CCN(CC)S(=O)(=O)c1ccc(Br)c(OC)c1	7%
O=C(Oc1c(CN2CCOCC2)cc(Cl)c2cccnc12)c1ccc(F)cc1	-3%
C/C(CCC(=O)OC[C@@H]1O[C@H](C#Cc2ccccc2)C=C[C@@H]1Oc1ccc(C)cc1)=N/OC[C@@H](C)[C@H](OCc1ccccc1)C(C)C	-1%[11.4 µM]
Cc1ccc(SCc2nc(-c3ccccn3)no2)cc1	4%
CC(O)c1c(OCc2ccccc2)ncnc1OCc1ccccc1 (stereo not drawn)	-4%
CN(C)c1ccc(-c2nc(NCCc3cnc[nH]3)c3ccccc3n2)cc1	?
Cn1c(=O)c2c(nc(NCCCN3CCOCC3)n2Cc2ccc(Cl)c(Cl)c2)n(C)c1=O	10%
Cc1cc(NS(=O)(=O)c2ccc(NC(=O)c3ccoc3C)cc2)nc(C)n1	-6%
CCC(C)[C@H](NC(=O)NCc1ccccc1Cl)C(=O)O (stereo partly drawn)	9%
O=C(CCC(=O)OCCCC(F)(F)C(F)(F)F)Nc1ccccc1	3%
